# Cruzain Triton = qHTS Assay for Promiscuous and Specific Inhibitors of Cruzain (with detergent); Cruzipain (Trypanosoma cruzi), P25779; purified cruzain, Z-FR-AMC fluorescence, 0.01% Triton; Potency, µM, for the others: max response, negative = inhibition, hits mostly inhibitors; actives 0.43% (n = 200,000); AID 1478, 2009;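 note: plate controls were neutral wells for no effect and buffer without enzyme for full effect; nearly all actives have a fitted effect of over 40% in size; top concentration of the series not given in the record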
# Target sequence (P25779 123-467 limits assumed): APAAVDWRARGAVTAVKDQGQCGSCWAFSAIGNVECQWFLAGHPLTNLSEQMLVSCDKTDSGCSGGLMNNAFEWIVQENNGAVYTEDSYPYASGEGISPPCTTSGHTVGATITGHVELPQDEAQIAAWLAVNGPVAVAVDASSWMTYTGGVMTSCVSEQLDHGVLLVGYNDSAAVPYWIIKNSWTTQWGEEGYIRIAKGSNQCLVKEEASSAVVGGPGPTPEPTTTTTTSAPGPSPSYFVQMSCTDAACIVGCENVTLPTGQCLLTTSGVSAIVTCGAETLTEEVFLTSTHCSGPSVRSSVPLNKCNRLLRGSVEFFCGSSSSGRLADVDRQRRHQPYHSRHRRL
#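 Detergent-containing arm of a paired screen for aggregation-based inhibition: 0.01% Triton X-100 present. Cruzain at 1.5 nM cleaved 2 uM Z-FR-AMC at pH 5.5 with 5 mM DTT; AMC fluorescence gain over 60 s measured activity.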
# Lassa entry inh = qHTS for Inhibitors of binding or entry into cells for Lassa Virus. Lassa virus pseudotype entry inhibition, cell reporter; control for the full effect not named in the record. actives 1.2% (n = 300,000). Potency, µM (series often up to 37.9 µM), without a hit: at the highest dose activity change, negative = inhibition, most hits filed as inhibitors; active means well fitted inhibition curve with a large enough effect; inconclusive means small, poorly fitted or top-dose-only effect, or effect the other way; inactive means flat fitted curve, though single readings scatter; tested in HEK293 cells; note: % is set by controls: 0 for no effect and ±100 for the full control effect; nearly all actives have a fitted effect of over 50% in size; luciferase read-out
# NS1 function inh = qHTS Assay for Inhibitors of Influenza NS1 Protein Function | S. cerevisiae slowed by influenza A NS1, growth recovery by OD600 | Potency, µM (highest dose often 46.1 µM), for the others: top-dose activity, positive = more growth | actives 0.4% (n = 270,000) | AID 2326, 2010; active means well fitted rising curve with a large enough effect; inconclusive means small, poorly fitted or top-dose-only effect; inactive means no such curve, though single readings can be large or run the other way; note: nearly all actives have a fitted effect of over 50% in size
#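 OD600 was taken as the measure of yeast growth restored by compound in an NS1-expressing S. cerevisiae strain. Cells had been washed out of glucose medium and diluted 1:100 into galactose -URA medium, pH 6.0.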
# MARV entry inh = qHTS for inhibitors of binding or entry into cells for Marburg Virus. Marburg virus pseudotyped entry inhibition, cell reporter; control for the full effect not named in the record; about a third of the inactives were read at about 46 µM. AID 540276, 2011. actives 1.8% (n = 300,000). Potency, µM (doses to about 37.8 µM), for the others: at the top dose activity change, negative = inhibition, most hits filed as inhibitors; active = well fitted inhibition curve with a large enough effect; inconclusive = small, poorly fitted or top-dose-only effect, or effect the other way; inactive = flat fitted curve, though single readings scatter; tested in HEK293 cells; about a fifth of its hits are not listed in these tables; note: % is set by controls: 0 for no effect and ±100 for the full control effect; luciferase read-out
# 2A StopGo = High Throughput Screening for Foot and Mouth Disease Virus Antivirals; human cells with a luciferase reporter of 2A StopGo recoding; control for the full effect not named in the record; Potency, µM (top dose mostly 57.9 µM), without a hit: at the top dose signal change, negative = less light; actives 1.2% (n = 410,000); active = well fitted falling curve with a large enough effect; inconclusive = small, poorly fitted or top-dose-only effect; inactive = no such curve, though single readings can be large or run the other way; tested in HEK293T cells; note: % is set by controls: 0 for no effect and ±100 for the full control effect; nearly all actives have a fitted effect of over 45% in size; luciferase light after 4 h
# SARS PLpro yeast = qHTS of Yeast-based Assay for SARS-CoV PLP; S. cerevisiae expressing SARS-CoV PLpro, growth rescue; control for the full effect not named in the record; Potency, µM (highest dose often 32.9 µM), without a hit: at the highest dose activity, positive = growth rescue; actives 0.19% (n = 330,000); AID 485353, 2010; active means well fitted rising curve with a large enough effect; inconclusive means small, poorly fitted or top-dose-only effect; inactive means no such curve, though single readings can be large or run the other way; note: 0% is about no effect; nearly all actives have a fitted effect of over 55% in size; growth read by luminescence after 48 h
# RE007 growth inh = qHTS Assay for Inhibitors of the HIV-1 protein Vpr; S. pombe RE007 Vpr strain, BacTiter-Glo ATP luminescence, 24 h; control for the full effect not named in the record; Potency, µM (highest dose often 92.2 µM), inactives show at the top dose activity change, negative = less growth; actives 0.21% (n = 360,000); AID 651644, 2012; active = well fitted falling curve with a large enough effect; inconclusive = small, poorly fitted or top-dose-only effect; inactive = no such curve, though single readings can be large or run the other way;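 note: % is set by controls: 0 for no effect and ±100 for the full control effect; nearly all actives have a fitted effect of over 50% in size; the assay follows cell death caused by Vpr and the record does not say whether a fall means rescue or toxicity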
#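 Fission yeast strain RE007, carrying one chromosomally integrated HIV-1 vpr copy, was seeded at OD 0.01 in PMG+AL medium with 23 nL pinned compound. After 24 h at 30 °C and 99% humidity, viability was read by BacTiter-Glo luminescence.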
# Cruzain noTriton = qHTS Assay for Promiscuous and Specific Inhibitors of Cruzain (without detergent) | Cruzipain (Trypanosoma cruzi), P25779 | purified cruzain, Z-FR-AMC fluorescence, no detergent | AID 1476, 2009 | actives 2.3% (n = 200,000) | Potency, µM, for the others: max response, negative = inhibition, actives largely listed as inhibitors;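 note: plate controls were enzyme without inhibitor for no effect and buffer without enzyme for full effect; nearly all actives have a fitted effect of over 40% in size; top concentration of the series not given in the record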
#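 Purified cruzain at 1.5 nM, pre-incubated 15 min with compound at room temperature in 100 mM sodium acetate pH 5.5, 5 mM DTT, 0.00005% Triton X-100. Reaction started with 2 uM Z-FR-AMC; AMC fluorescence increase over 60 s gives rate.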
# The depositor's hits bear a star; u = inconclusive; x = not tested or not shown; & = joins results of further samples; [ ] = dose if it differs, or a comment. Unless noted, calls come from the whole dose curve; as a rule, active = well fitted curve in the direction sought with a large enough effect; inconclusive = small, poorly fitted or top-dose-only effect, or another doubt; inactive = no such curve, though single readings can be large; an effect the other way counts as inactive or inconclusive. Potency is the fitted concentration of half-maximal effect. An unsorted share of the library; 4.5% or so of the library scored in one or more.
Molecule	Cruzain Triton	Lassa entry inh	NS1 function inh	MARV entry inh	2A StopGo	SARS PLpro yeast	RE007 growth inh	Cruzain noTriton
CCOC(=O)C1=C(C)NC2=C(C(=O)CC(C)(C)C2)C1c1coc2ccccc2c1=O (stereo not given)	-4.9%	-5%	-12%	3%	-1%	3%	-4%	-10%
CCc1c(C)sc(NC(NC(C)=O)(C(=O)OC)C(F)(F)F)c1C#N (stereo not given)	-2.7%	u	-2%	10%	-18%	6%	-12%	-3%
Clc1ccc(C2[C@H]3CN(Cc4ccc(-c5ccccc5)cc4)[C@H](c4ccccc4)C34CC2(c2cccnc2)C4)cn1 (stereo not given in full)	0.7%	x	3%	x	x	-1%	x	-19%
COc1ccc(NC2CCCN(C(=O)c3ccncc3)C2)cc1 (stereo not given)	x	x	21%	x	-22%	13%	14%	x
Cc1ccc(/C=C/C(=O)OCC(=O)NCCN2C(=O)CSC2=O)o1	x	13%	x	17%[46.1 µM]	-13%	0%	2%	x
O=C(O)c1nn(-c2ccccc2)ccc1=O	-1.1%	11%	16%	11%	-12%	-7%	-21%	-10%
O=C1CCC(C(=O)Nc2ccccc2)N1 (stereo not given)	-0.3%	3%	7%	6%	-4%	25%	8%	-13%
CN1CCC(NCCC(c2ccc(F)cc2)c2ccc(Cl)cc2)CC1 (stereo not given)	x	u	1%	u	-7%	-1%	22%	x
Cc1c(Cl)cccc1NC(=S)NN1CCOCC1	0.9%	10%	2%	1%	-19%	-8%	11%	14%
O=C(NC1CCN(S(=O)(=O)c2ccccc2F)CC1)c1ccco1	x	5%	-16%	4%[46.1 µM]	-16%	0%	10%	x
O=C(c1cccc(C(=O)N2CCN(c3ccccc3F)CC2)n1)N1CCN(c2ccccc2F)CC1	-1.6%	u	-9%	u	u	1%	14%	u
S=C(NC1CCCC1)N1CCN(c2ncccn2)CC1	x	-1%[46.1 µM]	-2%	2%[46.1 µM]	3%	1%	-11%	x
CCOC(=O)c1c(CC(C)C)csc1NC(=O)COC(=O)c1ccc(O)cc1	x	u	x	-2%	35µM*	2%	5%	x
CCN(CC)C(=O)Cn1c(C)c(/C=C/c2cc[n+](C)cc2)c2ccccc21	x	x	0%	x	5%	-1%	-2%	x
CCOc1ccc2nc(SCC(=O)N3CCN(C(=O)c4ccco4)CC3)sc2c1	-3.4%	u	-11%	-15%	u	-6%	1%	1%
Cc1ccccc1N(CC(=O)NC1CCCCC1)C(=O)CCCC(=O)Nc1ccccn1	x	2%[46.1 µM]	12%	-6%[46.1 µM]	0%	2%	-9%	x
N#CCC(=N)N1CCN(c2ccc(Cl)cc2)CC1	-1.1%	9%	-8%	22%	0%	-13%	15%	13µM*
COCCNC(=S)NCCCNc1nc2cc3c(cc2cc1C#N)OCO3	18µM*	9%	26%	1%	x	-3%	-8%	u
CC(=O)NC(Cc1c[nH]c2ccccc12)C(=O)NCCc1ccccn1 (stereo not given)	x	-13%	10%	-1%[46.1 µM]	10%	3%	-11%	x
Cc1ccccc1CS(=O)(=O)c1nnc([C@H](CC(C)C)NC(=O)OC(C)(C)C)o1	13µM*	-2%	-180%	u	u	-29%	-13%	25µM*
Cn1c(O)c(/C=N/NC(=O)c2cc3ccccc3cc2O)c2ccccc21	x	-25%	-6%	u	0%	13%	-26%	x
COc1ccccc1N(C(=O)c1ccco1)C(C(=O)NC1CCCC1)c1cccnc1 (stereo not given)	0.8%	-19%	-3%	2%&2%	-6%	-3%	-7%	0%
CCN(C(=O)[C@@H]1CCCN1C(=O)c1cccs1)c1nc2cc(Cl)ccc2s1	-13%	1%	16%	u	13%	-1%	10%	-1%
O=C(COC(=O)C1=COCCO1)NC1CCCCCCC1	x	2%[46.1 µM]	x	15%[46.1 µM]	30%[activator]	2%	0%	x
COc1ccc(NC(=S)NC2CC3CCC(C2)N3Cc2ccco2)cc1 (stereo not given)	x	-10%[46.1 µM]	4%	u	22%	2%	5%	x
Cc1ccc(-c2nc3sc(C#N)c(N)n3c(=O)c2C#N)cc1	x	-21%[46.1 µM]	4%	27%[46.1 µM]	49%[activator]	0%	5%	x
CCOC(=O)N1CCN(CC(=O)Nc2ccc(C)cc2)CC1	1.8%	-9%	u	18%	x	x	-2%	-2%
CC(C)CC(=O)NS(=O)(=O)c1ccc(NS(C)(=O)=O)cc1	x	-5%	-1%	17%	-6%	2%	-8%	x
CCOc1ccc(N2CC(C(=O)NCc3ccccn3)CC2=O)cc1 (stereo not given)	x	-3%[46.1 µM]	6%	u	35%[activator]	-1%	-2%	x
Cc1cccc(NC(=O)N2CCCC(CNC(=O)c3ccccc3Cl)C2)c1C (stereo not given)	x	x	5%	x	-15%	2%	-7%	x
CC(=O)c1ccc(N2CCN(C(=S)Nc3ccc(Cl)c(Cl)c3)CC2)cc1	x	u	x	30%[46.1 µM]	7%	1%	1%	x
CC(=O)N1c2ccccc2C2(C)C(C1(C)C)C2(Cl)Cl (stereo not given)	x	-1%	1%	u	u	1%	-2%	x
Cc1cccn2c(=O)nc(SCC(=O)NCc3ccc(F)cc3)nc12	x	-14%	x	4%	-3%	-4%	-9%	x
CCN(CC)S(=O)(=O)c1ccc(N2CCOCC2)c(NC(=O)CNCCc2ccccc2)c1	x	x	-6%	x	-10%	0%	1%	x
Cc1cc(C)cc(NC(=O)CCCn2c3ccccc3c(=O)c3ccccc32)c1	-3.4%	u	x	x	u	x	x	-22%
O=C(NCc1ccc(F)cc1)c1ccc(N2CCc3ccccc32)c([N+](=O)[O-])c1	-4.3%	18µM*	4%	u	u	x	-14%	u
CCCCn1c(=O)c2c(c3ccccc31)OCC(=O)N2	-0.4%	x	-7%	x	x	-2%	x	-1%
COC(=O)c1ccccc1OCCCOc1ccc(C)cc1OC	-5.1%	x	1%	-2%	x	-5%	x	u
O=C(Nc1ccc(N2CCCCC2)c(Cl)c1)c1ccc2c(c1)OCCO2	-5.3%	-24%	-6%	-25%[46.1 µM]	4%	-31%	-1%	2%
COC(=O)C1=C(C)[C@@H](O)[C@@H](C)[C@](C)(c2cc(OC)c(C)c(OC)c2COc2ccccc2)O1	1.5%	3%&10%[14.3 µM]	x	6%&6%&1%[14.2 µM]	x	x	x	14%
CSc1ncccc1C(=O)NNC(=O)c1ccc(NS(=O)(=O)c2cccs2)cc1	x	19%	x	19%	-15%	x	7%	x
C=C(C)Cn1c(-c2ccncc2)n[nH]c1=S	x	0%	x	u	-1%	0%	13%	x
O=C(NCc1ccccc1)c1cc[n+](Cc2ccccc2)cc1	x	-4%[46.1 µM]	x	16%[46.1 µM]	-10%	0%	-11%	x
CC(C)c1ccc(NC(=O)CSc2nc3ccsc3c(=O)n2CCC(=O)O)cc1	x	24%[46.1 µM]	30%	1%[46.1 µM]	-1%	-3%	-12%	x
COc1ccc(C(=O)O/N=C(\N)c2ccccc2Cl)cc1OC	x	4.5µM*	-31%	11µM*	20%	-6%	16%	x
CS(=O)(=O)NCc1ccc(C(=O)NCCOc2ccccc2)cc1	1.5%	-17%	-3%	u	50%[activator]	-4%	-3%	-9%
CC1CC(C)(C)NC(=S)N1CC(=O)N1CCN(Cc2ccc3c(c2)OCO3)CC1 (stereo not given)	x	u	x	-1%[46.1 µM]	-21%	-7%	8%	x
COc1ccc(-c2c(C)nn3c(N4CCOCC4)cc(C)nc23)cc1OC	x	-10%	-7%	5%	-17%	2%	15%	x
Nc1c(C(=O)O)cnn1-c1ccc([N+](=O)[O-])cc1	x	0%	0%	5%[46.1 µM]	-8%	-7%	-9%	x
O=c1[nH]cnc2c1nnn2Cc1ccccc1	x	-17%	4%	-20%	-11%	0%	-16%	x
COC(=O)C1=NN(c2ccc(C)cc2)C2(S1)SC(C(C)=O)=C(C)N2c1ccccc1 (stereo not given)	-7.8%	16%	8%	-10%	3%	-3%	u	-8%
O=C(O)CC(=O)Nc1ccccc1	7.7%	-4%	7%	3%	-14%	3%	-19%	-2%
CCCC(=O)Nc1cc(C(=O)O)ccc1Sc1ccccc1	x	x	x	23%[46.1 µM]	-3%	-4%	6%	x
CN(CC(=O)Nc1ccccc1C(F)(F)F)C(=O)CSCc1ccc(Cl)c(Cl)c1	x	-17%	x	u	4%	5%	-3%	x
Cc1sc2ncnc(SCC(=O)NC(=O)NCc3ccco3)c2c1C	-4.2%	-12%	1%	5%	x	-3%	-1%	-25%
COc1ccc(CNC(=O)CCc2nc3cccnc3n2Cc2ccc(OC)cc2)cc1	0.9%	14%[46.1 µM]	x	8%[46.1 µM]	5%	x	x	2%

# Rewritten with two lines to a compound: part of the list above
# Results follow in this order: Cruzain Triton, Lassa entry inh, NS1 function inh, MARV entry inh, 2A StopGo, SARS PLpro yeast, RE007 growth inh, Cruzain noTriton
CCCC(=O)Nc1cc(C(=O)O)ccc1Sc1ccccc1
  x, x, x, 23%[46.1 µM], -3%, -4%, 6%, x
CN(CC(=O)Nc1ccccc1C(F)(F)F)C(=O)CSCc1ccc(Cl)c(Cl)c1
  x, -17%, x, u, 4%, 5%, -3%, x

# Screening data deposited in PubChem BioAssay by National Center for Advancing Translational Sciences (NCATS).
